High-throughput results (PubChem BioAssay)
T cruzi inh: inhibitors of intracellular T. cruzi growth, primary screen, luminescence, NIH3T3 host cells | T. cruzi beta-gal in NIH3T3, 90 h | 1.4% of 300,000 active | inhibition, % (no concentration beside the values) | AID 1885, 2009;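 active means mean inhibition across valid replicates above about 55%, limit read from the data; inconclusive means mean below that limit but half or more replicates reach it; inactive means mean below it, under half of replicates reach it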;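 further: signal also drops with host cell toxicity which is not excluded here; 0% = plate median of DMSO wells and 100% = zero luminescence signal; higher percent means less beta-gal luminescence so fewer parasites; stock transfer was 50 nL into about 50 µL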
LANA-H2B inh: blockers of LANA interaction with H2A/H2B – biochemical, FP readout, HTS, primary screen. inhibition, % (test concentration not listed). Protein LANA1 (Human herpesvirus 8 type P (isolate GK18)), Q9QR71. 0.6% of 320,000 active. cell-free LANA-H2A/H2B peptide, fluorescence polarization; in the data active means inhibition mostly above about 10%, no sharp cut-off; inactive means mostly below about 6.7%;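 further: stock transfer was 7.5 nL into about 10 µL; 0% = median of vehicle wells and 100% = median of positive control wells; one replicate is shown; the record names a cut of 25% in any replicate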
Calb FLC: C. albicans growth inhibition with fluconazole, primary screen, CaCi-2 strain, Alamar Blue fluorescence | 0.57% of 300,000 active | C. albicans CaCi-2 (fluconazole-resistant clinical isolate) + fluconazole, 48 h | growth inhibition, % (no concentration beside the values) | AID 1979, 2009;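 active means most replicates above 75%; inconclusive means exactly half above 75%; inactive means most below 75%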;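 further: all wells also contain fluconazole at 8 µg/ml as a sub-toxic cotreatment; 0% = median of DMSO wells and 100% = median of geldanamycin control wells; wells of about 8 µL received 7.5 nL stock; the first replicate is given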
ALR inh: inhibitors of human ALR sulfhydryl oxidase, primary screen, biochemical, H2O2 detection, HRP-luminol luminescence, single point. FAD-linked sulfhydryl oxidase ALR (Homo sapiens), P55789. purified ALR, DTT oxidation. inhibition, % (test concentration not listed). 3.8% of 290,000 active. AID 485317, 2010;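 active means mean and each replicate at 75% or more; inconclusive means only one of the two met; inactive means neither met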;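 further: stock transfer was 7.5 nL into about 7.5 µL; 0% = neutral wells and 100% = wells with inactivated enzyme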
Target sequence (P55789 whole entry, looked up): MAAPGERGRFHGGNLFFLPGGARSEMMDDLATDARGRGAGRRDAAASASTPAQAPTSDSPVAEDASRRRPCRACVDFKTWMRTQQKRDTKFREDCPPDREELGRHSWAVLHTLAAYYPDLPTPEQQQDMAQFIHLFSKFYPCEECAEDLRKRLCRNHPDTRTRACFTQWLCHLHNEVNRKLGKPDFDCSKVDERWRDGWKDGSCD
Bfl-1 A1 inh: caspase 3/7 activation in MEF A1-2A-BIM cells, primary screen, A1 inhibitor project, cell-based, luminescence, HTS. Caspase-Glo 3/7 luminescence, 3 h; percent of clofoctol response, vehicle zero. caspase activation, % (no concentration beside the values). 0.066% of 330,000 active. AID 2462, 2010;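 active means over half of replicate activation scores above 10%, or exactly half above 10 with the replicate mean above 10; inconclusive means replicate mean below 10 yet half the replicates above 10; inactive means over half of replicates below 10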;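 further: wells of about 30 µL received 50 nL stock; many hits fall short of the cut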
Beta cell apopt: inhibitors of cytokine-induced beta cell apoptosis, primary screen, luminescence | INS-1E cytokine-induced death, ATP luminescence, 48 h; percent of positive-control rescue, neutral wells zero | protection from apoptosis, % (test concentration not listed) | 0.8% of 300,000 active;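 active means all replicates at 75% or more, or half of them and the mean; inconclusive means half reach 75% but not the mean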;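 further: 0% = cytokine-treated negative control wells and 100% = positive control rescue; higher means more ATP so stronger rescue from cytokine killing; wells of about 40 µL received 100 nL stock; the first replicate is given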
rRNA inh HTS: reduced GFP signal of wild-type E. coli, primary screen, bacterial rRNA inhibitor project, GFP/RFP fluorescence, OD600, single point; E. coli WT GFP vs humanized-ribosome RFP mutants, 24 h; stronger effect = lower value; DMSO median 0, no signal -100; GFP signal change (wild-type ribosome), % (no concentration beside the values); 1.6% of 350,000 active; AID 720706, 2013;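 active means significant combined selectivity score with lowered wild-type GFP, culture density cut under 30%, mutant RFP and density less affected; inactive means any of these conditions unmet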; further: one replicate is shown; some compounds called inactive have numbers as strong as hits
B2AR ag: beta2AR agonists driving receptor internalization, primary screen, cell-based, FAP fluorogen, flow cytometry; Beta-2 adrenergic receptor (Homo sapiens), P07550; Am2.2-beta2AR cells; reference of the scale not given here; response, % (test concentration not listed); 0.43% of 340,000 active; AID 504454, 2011;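 active means response above a set limit, near 3 SD of response in nonfluorescent compounds, cut at about 42% in these data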;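 further: stock transfer was 100 nL into about 11 µL; a reference agonist was the positive control; negative values mostly stem from fluorescent compounds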
Target sequence (P07550 whole entry, looked up): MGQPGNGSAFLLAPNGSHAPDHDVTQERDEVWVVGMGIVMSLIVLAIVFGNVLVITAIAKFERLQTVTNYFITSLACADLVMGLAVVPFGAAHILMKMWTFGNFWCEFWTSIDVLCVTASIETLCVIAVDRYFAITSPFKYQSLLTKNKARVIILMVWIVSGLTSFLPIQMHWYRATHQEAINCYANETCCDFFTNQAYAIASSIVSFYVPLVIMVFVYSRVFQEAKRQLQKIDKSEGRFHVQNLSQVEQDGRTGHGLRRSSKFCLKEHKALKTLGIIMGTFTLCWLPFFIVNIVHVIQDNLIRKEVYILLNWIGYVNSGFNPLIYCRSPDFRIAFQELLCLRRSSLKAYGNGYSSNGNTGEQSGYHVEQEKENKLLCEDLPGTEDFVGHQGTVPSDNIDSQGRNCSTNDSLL
rRNA inh HTS OD600: second read-out of rRNA inh HTS, no call of its own (marks repeat the call); OD600 change, %; measured here: OD600 growth;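 optical density of the mix in the first replicate; 0 = DMSO median and -100 = no signal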
rRNA inh HTS RFP: second read-out of rRNA inh HTS, no call of its own (marks repeat the call); RFP signal change, %; measured here: RFP humanized mutant strains;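 first replicate; 0 = DMSO median and -100 = no signal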
Starred values were filed as active, the others as inactive; ? = inconclusive; . = not tested or not shown. This is a subset; rates above refer to the full screens.

SMILES	T cruzi inh	LANA-H2B inh	Calb FLC	ALR inh	Bfl-1 A1 inh	Beta cell apopt	rRNA inh HTS	rRNA inh HTS OD600	rRNA inh HTS RFP	B2AR ag
Cc1ccc(NC(=S)Nc2cccc(-c3n[nH]c(=S)o3)c2)cc1	-2	0.6	0	89*	1.2	-3	-4	0	1.2	-1
NC(=O)CC(NC(=O)Cc1cccc2ccccc12)c1ccc(NCCCN2CCCC2=O)c([N+](=O)[O-])c1 (centres undefined)	-5	-10	-1	0	-0.5	-4	0	3	0.0	103*
COc1ccc(C(=O)OCN2C(=O)c3ccccc3C2=O)cc1	-5	3.5	0	-9	0.0	-1	12	15	-2.2	-1
O=C(Cn1ncc(N2CCCC2)c(Cl)c1=O)c1ccc(Cl)cc1	0	-0.1	-18	1	0.9	2	0	-2	1.1	-16
Fc1ccccc1C1c2[nH]c3ccccc3c2CCN1CCCn1cccn1 (centres undefined)	4	2.4	-8	-6	0.2	-4	-11	-20	-6.9	10
CCOC(=O)N1CCN(CC(c2ccccc2)c2ccccc2)CC1	-3	-0.2	-3	.	1.9	-4	-15	-13	-2.4	4
Clc1ccccc1-c1nnc2sc(CCc3ccccc3)nn12	-2	0.8	11	-4	?	2	-19*	-0.6*	6.9*	-4
Cc1ccc(S(=O)(=O)N2CCC(C(=O)N/N=C/c3ccncc3)CC2)cc1	0	-2.0	0	-2	0.2	0	-6	0	5.6	6
COc1ccc(-c2cc(-c3ccccc3)nc3ncnn23)cc1	16	2.9	-3	-7	0.9	4	-1	-20	-7.2	-10
COc1cccc(C(=O)Nc2nnc(Cc3ccc(OC)c(OC)c3)s2)c1	-4	2.1	-10	-52	0.1	-2	-2	5	-0.5	1

Results in rRNA inh HTS OD600, for 2 of the compounds above:
structure	rRNA inh HTS OD600
Cc1ccc(NC(=S)Nc2cccc(-c3n[nH]c(=S)o3)c2)cc1	0
NC(=O)CC(NC(=O)Cc1cccc2ccccc12)c1ccc(NCCCN2CCCC2=O)c([N+](=O)[O-])c1 (centres undefined)	3

Following part
SMILES	T cruzi inh	LANA-H2B inh	Calb FLC	ALR inh	Bfl-1 A1 inh	Beta cell apopt	rRNA inh HTS	rRNA inh HTS OD600	rRNA inh HTS RFP	B2AR ag
COc1ccccc1C(=O)NCc1ccccc1	-9	-2.5	19	.	0.2	.	.	.	.	7
Cc1cc(CSc2ccccc2)ccc1NC(=O)c1cccc([N+](=O)[O-])c1	-2	5.0	-1	1	0.6	6	.	.	.	5
Cc1ccccc1CN1CCN(C(C)C(=O)NNC(=O)c2ccc(F)cc2)CC1 (centres undefined)	.	2.4	.	1	0.5	-2	12	5	0.8	-7
Cc1ccccc1OCc1nnc(SCC(=O)Nc2c(C)n(C)n(-c3ccccc3)c2=O)n1-c1ccccc1	1	3.4	.	-4	-0.1	-8	-5	-1	-1.0	2
Cc1ccc(C(=O)CCC(=O)N2CCC(C(N)=O)CC2)cc1	7	-2.5	-6	-1	0.7	-1	12	11	-3.1	-3
Cc1ccccc1C(=O)NC(=S)N(C)C1CCCCC1	-8	-0.9	-7	8	-0.4	-23	2	6	0.7	2
CCN(CC)c1nc2ccccc2nc1-n1nc(C)cc1C	-6	-2.6	15	-6	-0.9	4	.	.	.	-4
Cc1cc(NC(=O)CCC(=O)N(Cc2ccc(F)cc2)C(C(=O)NC2CCCC2)c2ccco2)no1 (centres undefined)	.	-4.8	8	.	0.7	-12	5	11	-1.1	-6
NC(=S)c1cnn2c(-c3cccc(C(F)(F)F)c3)ccnc12	-18	-1.5	4	-7	-0.1	2	4	7	0.2	-10
CCn1c(SCC(=O)N/N=C/c2cccs2)nc2ccccc21	-4	-2.9	?	-4	0.3	2	-24	-23	-4.6	-9
CCc1ccc(NC(=O)C(=O)NCCN2CCN(S(C)(=O)=O)CC2)cc1	-1	-2.5	0	-18	-0.3	-2	11	12	-1.0	7
Cc1ccc(S(=O)(=O)N2CCC(C(=O)N3CCCC(C(F)(F)F)C3)CC2)cc1C (centres undefined)	-3	1.4	-7	1	0.7	5	-5	-16	0.6	-4
CC1=CC(=C(C#N)C#N)C=C(C)N1CCN1CCN(C(=O)Nc2cccc(Cl)c2)CC1	12	4.2	10	0	0.0	5	2	11	1.3	6
COc1ccccc1-n1c(SCC(=O)Nc2cccc(C)c2)nc2c(c1=O)SCC2	23	-2.3	1	32	-0.1	3	0	6	-2.7	-4
O=C1C(Cl)=C(NCC2CCCO2)C(=O)N1Cc1ccccc1 (centres undefined)	-5	6.1	0	6	-0.4	-6	.	.	.	-6
Fc1ccccc1-c1nc2c(s1)CCc1onc(-c3ccc(Br)cc3)c1-2	-24	3.5	3	7	-1.0	-13	5	6	-4.3	0
O=C(CCNS(=O)(=O)c1cccs1)NC1CCN(Cc2ccccc2)CC1	17	0.0	-9	-21	-0.4	.	12	11	0.3	0
Cc1ccc(Cl)cc1N1CCN(C(=O)C2CCN(S(=O)(=O)c3cnc[nH]3)CC2)CC1	.	1.9	.	0	0.7	.	.	.	.	12
CN1CCN(CC#CCC2(O)c3ccccc3-c3ccccc32)CC1	-1	9.7	1	-8	0.1	-7	16	13	-5.3	2
CCN(CC)c1ccc(NC(=O)C2=CCN(S(=O)(=O)c3ccc(F)cc3)CC2)c(C)c1	8	0.9	-1	87*	0.0	-10	1	-5	0.4	0
Nc1nonc1-c1nc2ccccc2n1Cc1ccccc1	-15	3.1	.	-6	0.7	-19	.	.	.	-1
Cc1ccc(NC(=O)C2CCN(S(=O)(=O)c3ccc4[nH]c(=O)oc4c3)CC2)cc1F	-10	-3.2	-20	-15	0.9	-1	-6	-4	1.5	2
O=Cc1cn(-c2ccccc2)nc1-c1ccncc1	-11	2.3	-18	3	-0.4	-1	-14	-8	-3.3	-11
COc1ccc(-c2ccc(C)cc2)cc1[C@H]1[C@@H]2C=CCC[C@@]2(C)C(=O)N1Cc1ccccc1	32	5.5	14	.	1.1	4	6	8	-3.8	11
NC12CCc3c(no[n+]3[O-])C1(O)CC(c1ccccc1)=[N+]2[O-] (centres undefined)	-12	-3.2	-6	-8	0.2	4	12	6	-1.9	-1
Cc1ccc(S(=O)(=O)N2CCN(C(=O)c3ccccc3Cc3ccccc3)CC2)c(C)c1	14	0.9	-9	-16	1.1	3	-22	-27	-2.3	-4
Cc1ccc(Cn2nnc3c(=O)[nH]c(C4CCN(S(=O)(=O)c5cc(C)ccc5C)CC4)nc32)cc1	-5	4.1	32	4	0.2	5	-5	-8	8.9	25
COc1ccc2[nH]c(C(=O)N/N=C/c3ccc(O)cc3O)cc2c1	?	-0.5	14	14	1.8	121*	-45	-75	-6.9	13
Cc1c(C(=O)NC2CCCc3ccccc32)oc2ccccc12 (centres undefined)	1	4.5	-2	10	0.3	-8	.	.	.	8
CC(C)C(=O)Nc1ccc(Cl)cc1-c1nc2ccccc2[nH]c1=O	-7	-1.6	-7	2	0.9	-4	3	0	-2.6	-7
Nc1nc(-c2ccc(-n3nncc3-c3ccco3)cc2)cs1	4	6.3	1	-5	0.4	1	.	.	.	.
C=CCc1ccc(OCC(O)CN2CCC(Cc3ccccc3)CC2)c(OC)c1 (centres undefined)	22	-2.8	-31	-34	0.5	14	.	.	.	1
Cc1cc(Oc2ncccc2[N+](=O)[O-])c2cc(Cl)ccc2n1	-9	6.0	36	97*	0.1	-6	9	-4	4.7	-13
Cc1ccc(SCC(=O)NNC(=O)c2cncc(Br)c2)cc1	.	5.9	.	-11	0.6	-6	5	-3	-0.9	-4
CC(=O)C1C(=O)c2c(cccc2[N+](=O)[O-])C1=Nc1ccc(S(N)(=O)=O)cc1 (centres undefined)	-5	-3.0	6	-2	0.8	1	2	9	-2.7	4
COCCNC(=O)c1ccc(C(=O)NCCOC)s1	-13	-1.2	3	0	-0.5	-4	.	.	.	2
CCC(C(=O)NCc1ccco1)N(C(=O)CNS(=O)(=O)c1ccccc1)c1ccc(OC)cc1 (centres undefined)	2	-2.8	-8	-3	0.1	1	.	.	.	11
COc1ccc(CCNC(=S)NC(=O)c2ccccc2)cc1OC	-12	5.9	9	20	-0.8	3	.	.	.	-2
COc1cc(OC)c(C2=NOC(C(=O)Nc3cc(C)nn3-c3ccccc3)C2)cc1Cl (centres undefined)	16	3.5	1	7	0.9	8	.	.	.	-6
COCCNCC(=O)Nc1ccccc1Sc1ccccc1	-18	1.4	0	2	0.1	-7	2	6	4.2	11
Cc1cc(C)cc(NC(=S)/C(=C(\[O-])c2ccc(Cl)cc2Cl)[n+]2ccc(C(C)(C)C)cc2)c1	21	-1.2	0	-3	0.7	7	-3	-5	13	2
Cc1ccc2nc(SCC(=O)Nc3oc(C)c4c(C)n[nH]c(=O)c34)[nH]c2c1	.	0.5	.	.	-0.1	1	9	20	-0.5	4
CSCCC(NC(=O)c1ccccc1)C(=O)O (centres undefined)	-2	-0.1	-2	-4	0.3	-5	24	21	3.5	5
CC(C)c1ccc(NC(=O)COC(=O)[C@H](CCC(N)=O)NC(=O)c2ccc(F)cc2)cc1	-11	-7.4	27	8	-0.5	7	.	.	.	-4
C/C(=N\N1C(=O)c2ccccc2NC1c1ccco1)c1ccccc1O (centres undefined)	61*	-0.3	33	0	-0.3	99*	-9	3	-1.7	-3
CCOC(=O)Cn1c(=O)oc2cc(S(=O)(=O)NC(C)(C)CC)ccc21	-4	1.6	2	-11	-0.4	-2	9	4	-5.1	2
CC(O)[C@H]1CNCCN1CCc1cc(C(F)(F)F)cc(C(F)(F)F)c1 (some centres undefined)	-6	-7.3	-5	1	-1.2	7	13	22	3.5	35
COc1cc(/C=C2\C(=N)N3N=C(S(C)(=O)=O)SC3=NC2=O)ccc1OS(=O)(=O)c1ccccc1	-12	5.3	-23	91*	0.7	-4	.	.	.	.
Cn1c(SCc2ccccc2F)nnc1-c1ccccn1	-23	-3.0	3	1	-0.7	-4	8	3	1.9	-5
CCOc1ccc(S(=O)(=O)NN=C(C)c2cccnc2)cc1	.	4.3	.	2	0.2	-3	2	-9	-0.8	4
O=C(Cc1cccs1)N1CCCC(c2nc3c(nnn3Cc3cccc(Cl)c3)c(=O)[nH]2)C1 (centres undefined)	9	-0.3	-13	4	-0.6	10	-54	-77	-23	-1
CCN(CC)c1ccc(/C=N/N2C(C)CCCC2C)c(O)c1 (centres undefined)	12	3.0	-8	98*	-0.4	-2	6	4	1.6	0
O=C(CN1C(=O)NC2(CCCCCC2)C1=O)NCc1ccco1	-19	-4.0	-6	11	-0.4	.	.	.	.	2
